Cruzain noTriton = qHTS Assay for Promiscuous and Specific Inhibitors of Cruzain (without detergent); Potency, µM, for inactives: max response, negative = inhibition, actives largely listed as inhibitors; 2.3% of 200,000 active; Cruzipain (Trypanosoma cruzi), P25779; purified cruzain, Z-FR-AMC fluorescence, no detergent;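 note: plate controls were enzyme without inhibitor for no effect and buffer without enzyme for full effect; nearly all actives have a fitted effect of over 40% in size; top concentration of the series not given in the record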
Target sequence (P25779 123-467 limits assumed): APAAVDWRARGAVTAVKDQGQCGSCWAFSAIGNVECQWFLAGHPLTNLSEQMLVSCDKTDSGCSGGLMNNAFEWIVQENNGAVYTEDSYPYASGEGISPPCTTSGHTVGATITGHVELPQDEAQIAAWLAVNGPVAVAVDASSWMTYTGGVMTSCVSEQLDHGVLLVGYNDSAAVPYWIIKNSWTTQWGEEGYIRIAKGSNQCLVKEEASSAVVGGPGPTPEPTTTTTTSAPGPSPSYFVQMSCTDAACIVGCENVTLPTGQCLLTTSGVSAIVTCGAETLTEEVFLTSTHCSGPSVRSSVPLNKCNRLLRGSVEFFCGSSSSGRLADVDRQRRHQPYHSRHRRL
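Purified cruzain at 1.5 nM, pre-incubated 15 min with compound at room temperature in 100 mM sodium acetate pH 5.5, 5 mM DTT, 0.00005% Triton X-100. Reaction started with 2 uM Z-FR-AMC; AMC fluorescence increase over 60 s gives rate.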
Cruzain inh Det = qHTS Assay for Promiscuous and Specific Inhibitors of Cruzain (with detergent); AID 1478, 2009; purified cruzain, Z-FR-AMC fluorescence, 0.01% Triton; 0.43% of 200,000 active; Potency, µM, for the others: max response, negative = inhibition, most hits filed as inhibitors;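 note: plate controls were neutral wells for no effect and buffer without enzyme for full effect; nearly all actives have a fitted effect of over 40% in size; top concentration of the series not given in the record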
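Sodium acetate buffer (100 mM, pH 5.5) containing 5 mM DTT and 0.01% Triton X-100 hosted 1.5 nM cruzain and test compound for 15 min at room temperature. Cleavage of 2 uM Z-FR-AMC was then tracked by fluorescence.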
NS1 inh = qHTS Assay for Inhibitors of Influenza NS1 Protein Function. AID 2326, 2010. 0.4% of 270,000 active. S. cerevisiae slowed by influenza A NS1, growth recovery by OD600. Potency, µM (highest dose often 46.1 µM), for inactives: at the highest dose activity, positive = more growth; active means well fitted rising curve with a large enough effect; inconclusive means small, poorly fitted or top-dose-only effect; inactive means no such curve, though single readings can be large or run the other way; note: nearly all actives have a fitted effect of over 50% in size
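S. cerevisiae expressing influenza A NS1, grown in glucose, washed, then diluted 1:100 into pH 6.0 -URA galactose medium with 23 nl compound. Growth recovery read as OD600; NS1-free strain serves as control.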
The depositor's hits bear a star; ? = inconclusive; . = no result given. Unless noted, calls come from the whole dose curve; as a rule, active = well fitted curve in the direction sought with a large enough effect; inconclusive = small, poorly fitted or top-dose-only effect, or another doubt; inactive = no such curve, though single readings can be large; an effect the other way counts as inactive or inconclusive. Potency is the fitted concentration of half-maximal effect. This is a subset, so the mix of outcomes need not match the whole.

| SMILES | Cruzain noTriton | Cruzain inh Det | NS1 inh |
| --- | --- | --- | --- |
| CCOc1cccc2cc(-c3csc(NC(=O)CCC(=O)N4CCN(C)CC4)n3)c(=O)oc12 | . | . | -5% |
| Cc1ccc(-c2nnc3sc(-c4ccc5c(c4)OCCO5)nn23)cc1 | . | . | 5% |
| COc1ccc(C)cc1NC(=O)C1CCCN(S(=O)(=O)c2c(C)noc2/C=C/N(C)C)C1 (configuration not stated) | . | . | 10% |
| CCOc1ccc(C2CC(c3ccc(Br)cc3)Nc3nc(N)nn32)cc1 (configuration not stated) | . | . | ? |
| Cc1ccc(N2C(=O)c3oc4ccccc4c(=O)c3C2c2cccnc2)nc1 (configuration not stated) | . | . | 15% |
| Cc1ccnc(SCCn2c(Br)nc3c2c(=O)n(C)c(=O)n3C)n1 | . | . | 9% |
| Cn1cnc2c(sc3nc(N4CCOCC4)c4c(c32)CC(C)(C)OC4)c1=O | . | . | -4% |
| CC1CCc2c(sc3nc(C4CC4)nc(SCC(=O)NCc4ccco4)c23)C1 (configuration not stated) | . | . | 8% |
| CN(C)CCCN1C(=O)C(=O)/C(=C(/O)c2ccc3c(c2)OCCO3)C1c1ccccn1 (configuration not stated) | . | . | 5% |
| COc1ccc(-c2nc(N3CCCC3)nc3nn4c(C)cc(C)nc4c23)cc1 | . | . | 7% |
| CN(C)CCCN1C(=O)C(=O)/C(=C(/O)c2ccc3c(c2)OCO3)C1c1cccnc1 (configuration not stated) | . | . | 5% |
| Cc1cc2oc(=O)cc(COC(=O)c3cccc(N(C)C)c3)c2cc1C | . | . | 2% |
| Cn1c(=O)c2c(SC3CCCC3)nc(CC(C)(C)C)nc2n(C)c1=O | . | . | 9% |
| Cc1cccc(N2CCN(C(=O)C3CCCN(S(=O)(=O)c4cccc5cccnc45)C3)CC2)c1C (configuration not stated) | . | . | -55% |
| COc1ccc(CCn2c(-c3ccco3)nc3oc4ccccc4c(=O)c3c2=O)cc1 | . | . | -1% |
| Cc1cccc(/N=C/c2c(O)n(-c3cc(Cl)ccc3N3CCOCC3)c(=O)c3ccccc23)n1 | . | . | 11% |
| COc1ccc(-c2cc3nc4c(c(N5CCC6(CC5)OCCO6)n3n2)CCCC4)cc1 | . | . | -45% |
| CN(C)CCN(Cc1ccccc1)S(=O)(=O)c1cccc2cccnc12 | . | . | 0% |
| CN(C)c1ccc(C2N(c3cccc(Cl)c3)C(=O)C3CCCN32)cc1 (configuration not stated) | . | . | 0% |
| C=CCn1c(=O)c(C(=O)Nc2nnc(C)s2)c(O)c2ccccc21 | . | . | -69% |
| CCC(=O)N1CCc2cc(Br)cc(S(=O)(=O)N3CCN(c4ccccn4)CC3)c21 | . | . | -5% |
| O=C(CN1CCN(c2ncccn2)CC1)N1CCN(C(c2ccccc2)c2ccccc2)CC1 | . | . | -18% |
| CN(C)c1ccc(C(c2nnnn2C2CCCCC2)N2CCN(C(=O)c3ccco3)CC2)cc1 (configuration not stated) | . | . | 2% |
| COC(=O)C(C)Sc1nc(-c2ccc(OC)cc2)nc2c1c(=O)n(C)c(=O)n2C (configuration not stated) | . | . | 9% |
| COC(=O)c1ccccc1NC(=O)c1cc(-c2cccc(OC)c2)on1 | . | . | -4% |
| CCOC(=O)c1cc2c(=O)n(C)c3ccccc3c2s1 | . | . | -2% |
| O=C(C1CCC(C(=O)N2CCCC2)CC1)N1CCCC1 (configuration not stated) | . | . | -31% |
| Cc1nnc2sc(-c3cccc(NC(=O)c4ccc(-c5cccc(Cl)c5)o4)c3)nn12 | . | . | 26% |
| CCOC(=O)c1c(NC(=O)c2cc(C3CC3)on2)sc2c1CCCC2 | . | . | -3% |
| COC(=O)c1nnn(-c2nc(N3CCCCC3)nc(N3CCCCC3)n2)c1C | . | . | 5% |
| CCOC(=O)c1sc(NC(=O)c2noc3c2CCCC3)c(C(=O)OCC)c1C | . | . | 24% |
| CCOC(=O)c1sc(NC(=O)C2CCCO2)c(C(=O)OC)c1C (configuration not stated) | . | . | 6% |
| CCSc1nc(-c2cccs2)nc2c1c(=O)n(C)c(=O)n2C | . | . | -13% |
| COc1ccc(NC(=O)c2cc(-c3ccc(O)cc3)on2)cc1OC | . | . | -11% |
| CCc1nc(SCC(=O)N2CCCc3ccccc32)c2c(=O)n(C)c(=O)n(C)c2n1 | . | . | 24% |
| Cn1nnnc1Sc1nc(-c2cccnc2)nc2ccccc12 | . | . | -8% |
| CCN1CCCC1CNC(=O)c1nn(-c2ccc(C)cc2)c(=O)c2c1c1ccccc1n2C (configuration not stated) | . | . | 19% |
| Cc1nccc2[nH]c(=O)c(C(=O)NC3CCN(Cc4ccccc4)CC3)cc12 | . | . | 26% |
| Cc1coc2c(C)c3oc(=O)c4c(c3cc12)CCC4 | . | . | 0% |
| O=C(CSc1ccc2nnc(-c3ccc(F)cc3)n2n1)N1CCCCC1 | . | . | 5% |
| CCn1c(=O)cc(SCC(=O)Nc2ccccc2N2CCN(C)CC2)c2ccccc21 | . | . | -2% |
| O=S(=O)(Nc1cccnc1)c1cccc2cccnc12 | . | . | 11% |
| O=C(c1ccc(Cl)cc1)N1CCN(c2nc(N3CCCCC3)nc(N3CCCCC3)n2)CC1 | . | . | -32% |
| Cc1nc2c3c(-c4ccccc4)nc(N4CCOCC4)nc3nn2c(C)c1CCC(=O)O | . | . | 26% |
| Nc1ccc(CN2CCN(c3ccc4ccccc4n3)CC2)cc1 | . | . | ? |
| Cc1cccc(N(CC(=O)NC2CCCCC2)C(=O)CCC(=O)Nc2cc(C)ccn2)c1 | . | . | 2% |
| Cn1cccc1C(C(=O)NC1CCCCC1)N(C(=O)Cc1cccs1)c1ccc2c(c1)OCCO2 (configuration not stated) | . | . | -22% |
| Cc1ccc2cc3cc(C(=O)N(C)C4CCCCC4)oc3nc2c1 | . | . | -9% |

Compound profiles (already shown). Order of values: Cruzain noTriton, Cruzain inh Det, NS1 inh
O=C(c1ccc(Cl)cc1)N1CCN(c2nc(N3CCCCC3)nc(N3CCCCC3)n2)CC1 is listed with ., ., -32%
Cc1ccc2cc3cc(C(=O)N(C)C4CCCCC4)oc3nc2c1 is listed with ., ., -9%

Later entries:
SMILES,Cruzain noTriton,Cruzain inh Det,NS1 inh
CC(C)c1nc(SCC(=O)NCc2ccc3c(c2)OCO3)c2c(=O)n(C)c(=O)n(C)c2n1,.,.,-8%
O=C(Nc1nnc(CC(=O)N2CCCC2)s1)c1cnccn1,.,.,3%
Cc1sc2c(c1C)CN(Cc1ccco1)CN2C(=O)c1ccccc1,.,.,3%
O=C(c1ccc2nc(N3CCOCC3)sc2c1)N1CCC2(CC1)OCCO2,.,.,-1%
Cc1ccc(-c2c3c(=O)n(C)c(=O)n(C)c3c3c(C)cc(C)nn23)cc1,.,.,-9%
COCCCNC(CC(=O)Nc1ccc(N(C)C)cc1)C(=O)O (configuration not stated),.,.,4%
Cn1c(=O)c2ncn(CC(=O)Nc3ccc4oc(-c5cccc6ccccc56)nc4c3)c2n(C)c1=O,.,.,6%
COc1ccc2c(c1)c(=O)oc1c(C)c3occ(C)c3cc12,.,.,4%
CCOC(=O)N1CCC(NC(=O)CSc2cc(=O)n(C)c3ccc(Cl)cc23)CC1,.,.,3%
COc1ccc(-c2cc(C(=O)NCc3cccs3)no2)cc1OC,.,.,-20%
Cc1ccc2nc(NC3=NCN(Cc4ccco4)CN3)nc(C)c2c1,.,.,14%
CN(C(=O)c1ccc(NC(=O)c2cnccn2)cc1)C1CCCCC1,.,.,1%
Cn1c(C(=O)N2CCN(c3ccccc3F)CC2)cc2c(=O)n(C)c3ccccc3c21,.,.,3%
CN(C(=O)c1cnccn1)c1nnc(-c2cccnc2)s1,.,.,-3%
CC(=O)Nc1ccc(-c2nn3c(C)nnc3s2)cc1C,.,.,5%
Cc1ccc2nc(NC3=NCN(Cc4ccc5c(c4)OCO5)CN3)nc(C)c2c1,.,.,9%
Cc1cc2nc(NC3=NCN(Cc4cccnc4)CN3)nc(C)c2cc1C,.,.,?
O=S(=O)(NCc1ccccn1)c1cccc2cccnc12,.,.,1%
CC(C)n1c(SCC(=O)N2CCCc3ccccc32)nc2c1c(=O)n(C)c(=O)n2C,.,.,-8%
CCOC(=O)c1sc(NC(=O)c2c(C)noc2C)c(C(=O)OCC)c1C,.,.,18%
O=C(CCC(=O)N1CCc2ccccc21)N1CCc2ccccc21,.,.,21%
CCOC(=O)C1=C(C)N=C2SC(CC)C(=O)N2C1c1ccc(OC(C)=O)c(OCC)c1 (configuration not stated),.,.,-6%
Cc1nc2ccccn2c1/C(O)=C1\C(=O)C(=O)N(CCCN(C)C)C1c1ccc(Cl)cc1 (configuration not stated),.,.,5%
O=C(CSc1nnc(-c2cccs2)n1-c1ccccc1)N1CCc2ccccc21,.,.,14%
c1cc(-c2noc(-c3ccc4c(c3)OCO4)n2)ccn1,.,.,11%
O=C(CN1C(=O)C2CCCN2C(=O)c2ccccc21)Nc1ccccc1-n1cccc1 (configuration not stated),.,.,13%
N#CC(C(=O)NC1CCCCC1)c1nc2ccccc2nc1N1CCCCC1 (configuration not stated),.,.,18%
C[C@]12C[C@@](C)(C=C1/C=C/c1ccc(C(F)(F)F)cc1)C(=O)C[C@H]2c1ccc(C(F)(F)F)cc1,-2%,-2.8%,.
O=c1cc(-c2ccc(O)cc2O)oc2ccccc12,-10%,-1.9%,.
O=C(OCC(COC(=O)c1ccccc1)(COC(=O)c1ccccc1)COC(=O)c1ccccc1)c1ccccc1,-24%,1.8%,.
C=C(C)C(=O)OCC(C)O (configuration not stated),26%,5.0%,.
CCCC1(C(=O)OC)C=C2C(=C(c3ccccc3)C(=O)C2C)CN1 (configuration not stated),-5%,-9.2%,.
C=C1[C@@H]2CC[C@H]3[C@@]4(C)C[C@@H](O[C@@H]5O[C@H](CO)[C@H](OS(=O)(=O)O)[C@@H](OS(=O)(=O)O)[C@@H]5OC(=O)CC(C)C)C[C@@H](C(=O)O)[C@H]4CC[C@@]3(C2)[C@H]1O,-4%,1.8%,.
CCC1=C2CC[C@H]3C(=O)N(CC(=O)OC)C(=O)[C@H]3[C@H]2[C@@]2(C)C(=NCCc3c[nH]c4ccccc34)OC(=O)N2C1=O,17%,0.0%,.
COC(=O)[C@@]1(Cc2ccc(F)cc2)[C@H]2c3cc(C(=O)N4CCCC4)n(Cc4cccc5ccccc45)c3C[C@H]2CN1C(=O)c1ccccc1,-2%,1.4%,.
CN1CCc2cc3c(cc2C(=O)Cc2ccc4c(c2C1)OCO4)OCO3,0%,0.7%,.

Arranged by SMILES length (highest first): some entries from above
SMILES,Cruzain noTriton,Cruzain inh Det,NS1 inh
C=C1[C@@H]2CC[C@H]3[C@@]4(C)C[C@@H](O[C@@H]5O[C@H](CO)[C@H](OS(=O)(=O)O)[C@@H](OS(=O)(=O)O)[C@@H]5OC(=O)CC(C)C)C[C@@H](C(=O)O)[C@H]4CC[C@@]3(C2)[C@H]1O,-4%,1.8%,.
COC(=O)[C@@]1(Cc2ccc(F)cc2)[C@H]2c3cc(C(=O)N4CCCC4)n(Cc4cccc5ccccc45)c3C[C@H]2CN1C(=O)c1ccccc1,-2%,1.4%,.
CCC1=C2CC[C@H]3C(=O)N(CC(=O)OC)C(=O)[C@H]3[C@H]2[C@@]2(C)C(=NCCc3c[nH]c4ccccc34)OC(=O)N2C1=O,17%,0.0%,.
O=C(OCC(COC(=O)c1ccccc1)(COC(=O)c1ccccc1)COC(=O)c1ccccc1)c1ccccc1,-24%,1.8%,.
Cc1nc2ccccn2c1/C(O)=C1\C(=O)C(=O)N(CCCN(C)C)C1c1ccc(Cl)cc1 (configuration not stated),.,.,5%
CCOC(=O)C1=C(C)N=C2SC(CC)C(=O)N2C1c1ccc(OC(C)=O)c(OCC)c1 (configuration not stated),.,.,-6%
CC(C)n1c(SCC(=O)N2CCCc3ccccc32)nc2c1c(=O)n(C)c(=O)n2C,.,.,-8%
O=C(CN1C(=O)C2CCCN2C(=O)c2ccccc21)Nc1ccccc1-n1cccc1 (configuration not stated),.,.,13%
O=C(CSc1nnc(-c2cccs2)n1-c1ccccc1)N1CCc2ccccc21,.,.,14%
CCOC(=O)c1sc(NC(=O)c2c(C)noc2C)c(C(=O)OCC)c1C,.,.,18%
CCCC1(C(=O)OC)C=C2C(=C(c3ccccc3)C(=O)C2C)CN1 (configuration not stated),-5%,-9.2%,.
CN1CCc2cc3c(cc2C(=O)Cc2ccc4c(c2C1)OCO4)OCO3,0%,0.7%,.
Cc1cc2nc(NC3=NCN(Cc4cccnc4)CN3)nc(C)c2cc1C,.,.,?
O=C(CCC(=O)N1CCc2ccccc21)N1CCc2ccccc21,.,.,21%
O=S(=O)(NCc1ccccn1)c1cccc2cccnc12,.,.,1%
O=c1cc(-c2ccc(O)cc2O)oc2ccccc12,-10%,-1.9%,.
C=C(C)C(=O)OCC(C)O (configuration not stated),26%,5.0%,.
